Bioassay records: PubChem BioAssay, Southern Research Specialized Biocontainment Screening Center
Mtb betalactam: beta-lactam sensitization of Mtb H37Rv; M. tuberculosis H37Rv growth with meropenem, percent inhibition; hits of this screen are not shown here; inhibition, % at 25 µM; actives 0.27% (n = 330,000); AID 434955;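 active = about 74% or more and at least 40 points above the plate without the antibiotic, then above 30% in a dose series; inconclusive = first-round hits that could not be retested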;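 also: growth measured after seven days incubation then overnight dye step; 0% = bacteria only wells and 100% = bacteria with antibiotic; twin plates without the antibiotic show which effects depend on it; some results filed as inactive read as strong as hits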
* marks the source's active call; other numbers are inactive results; ? = inconclusive.

SMILES	Mtb betalactam
C[C@H](CO)N1C[C@H](C)[C@@H](CN(C)Cc2ccncc2)Oc2c(NS(=O)(=O)c3cn(C)cn3)cccc2C1=O	-4.2
Cc1cc(N(C)C)nc(Nc2ccccc2)n1	0.3
Oc1c(Br)c(Br)c(Br)c(Br)c1Br	-0.4
CSc1ncccc1C(=O)OCC(=O)c1[nH]c(C)c(C(C)=O)c1C	1.4
O=C(COC(=O)c1ccc(F)c(S(=O)(=O)N2CCOCC2)c1)c1ccccc1	8.7
COC(=O)[C@@]12CCCCN1[C@H](c1ccc(-c3ccc4c(c3)OCO4)c(OC)c1)[C@@H]1C(=O)N(C)C(=O)[C@@H]12	1.1
O=C(Nc1cccc(Br)c1)C1CCCC1	-6.7
COc1ccc(NC(=O)COC(=O)c2cc(=O)c3ccccc3o2)cc1OC	-1.2
COc1ccc(NS(=O)(=O)c2cc(NC(=O)c3ccc(=O)[nH]n3)ccc2N2CCOCC2)cc1	-5.6
COc1ccc(OC)c(/C=C/C(=O)OCC(=O)NCc2ccco2)c1	1.0
COCc1ccccc1C1=CC(=O)C[C@H](c2ccc(OC)cc2)C1	7.0
COc1ccc(Nc2nc(C)cc(C)c2C(N)=O)cc1OC	-5.4
O=C(CCN1C(=O)C2CCCCC2C1=O)Nc1cc([N+](=O)[O-])ccc1Cl (stereo not given)	-7.0
O=C(OCCCc1cc2ccccc2c(=O)o1)c1ccc(C(F)(F)F)cc1	1.6
CCOC(=O)[C@H]1[C@H]2COc3ccc(OC)cc3[C@@H]2N2C(=O)c3cc(F)c(F)cc3NC(=O)[C@@]12C	-2.6
O=C(OC[C@H]1O[C@@H](OC(=O)c2cc(O)c(O)c(OC(=O)c3cc(O)c(O)c(O)c3)c2)[C@H](OC(=O)c2cc(O)c(O)c(OC(=O)c3cc(O)c(O)c(O)c3)c2)[C@@H](OC(=O)c2cc(O)c(O)c(OC(=O)c3cc(O)c(O)c(O)c3)c2)[C@@H]1OC(=O)c1cc(O)c(O)c(OC(=O)c2cc(O)c(O)c(O)c2)c1)c1cc(O)c(O)c(OC(=O)c2cc(O)c(O)c(O)c2)c1	20.4
CCOC(=O)C1=CC[C@H]2c3c(c4ccc(OC)cc4n3C)C(=O)C1N2S(=O)(=O)c1ccc(C)cc1	-0.3
COc1ccc(Cl)cc1NC(=O)COC(=O)CNC(=O)C1CCCCC1	-1.6
CSc1cccc(NC(=O)COC(=O)C2(c3ccccc3)CC2)c1	-2.0
CC(C)[C@H](NC(=O)c1ccccc1Cl)C(=O)OCC(=O)N1CCCCC1	-2.4
COc1cc(OC)cc(-c2c(-c3cccs3)c3cc(-c4ccc(CN5CCOCC5)cc4)ccc3n2C)c1	73.7
CCc1c(C2(O)CCCCC2)[nH]c2ncccc12	5.3
CCc1nc2nc(C)c(NS(=O)(=O)c3ccc(Br)s3)c(=O)n2[nH]1	-0.4
Cc1nn(C)c(C)c1NS(=O)(=O)c1c(C)n[nH]c1C	-3.0
O=C(N[C@@H]1C/C=C\C[C@@H](CC(=O)N(CCO)Cc2ccccc2)C(=O)N[C@H](Cc2ccccc2)COC1=O)OCC1c2ccccc2-c2ccccc21	-8.6
N#CCCN(C(=O)CN1CCN(S(=O)(=O)c2ccc(Cl)s2)CC1)c1ccc(F)cc1	4.1
CC(OC(=O)c1cccc(-n2cnnn2)c1)c1nc2ccccc2c(=O)[nH]1 (stereo not given)	7.0
C[C@@H](O)C(C(=O)N1CCNCC1)n1cc([C@@H](N)CCCCN)nn1 (stereo not given in full)	-5.4
Cc1ccc(NC(=O)CN2CCC(NC(=O)c3ccccc3F)CC2)cc1C	-23.3
COc1cc(OC)cc(C(=O)NCC(=O)OC(C)C(=O)NC(C)C2CC3CCC2C3)c1 (stereo not given)	-7.1
O=C(COC(=O)c1ccco1)NCc1ccc(Cl)cc1Cl	2.6
Cc1ccc([C@@H]2CC=C(C(=O)O)[C@H](c3cccc(F)c3)N2S(=O)(=O)c2ccccc2C)cc1	6.9
CCCOc1ccc(C(F)(F)F)cc1NC(=O)CN1C(=O)C(=O)N(CC)C1=O	-6.4
Cc1ccc(SCCNC(=O)c2ccccc2F)cc1	-2.3
CCCCN(C(=O)CCC(=O)OCC(=O)NCc1ccccc1)c1c(N)n(CCC)c(=O)[nH]c1=O	7.9
CCc1ccc(N2CC(C(=O)Nc3ccc4c(c3)OCO4)CC2=O)cc1 (stereo not given)	-9.4
Cc1ccc(C)c(C(=O)CN2C(=O)C(=O)N(C3CCCC3)C2=O)c1	0.8
Cc1noc(C)c1S(=O)(=O)N(C)C[C@H]1Oc2ccc(NC(=O)C3CC3)cc2C(=O)N([C@H](C)CO)C[C@@H]1C	3.3
CC(C)CN(C(=O)c1ccc(N2CCCC2=O)cc1)c1c(N)n(Cc2ccccc2)c(=O)[nH]c1=O	-1.1
CN(C)C/C=C/C(=O)Nc1cccc(-c2c[nH]c3ncnc(Oc4ccc(NC(=O)CC(=O)Nc5ccc(F)cc5)cc4F)c23)c1	98.7
C[C@]12CCC(=O)C=C1C=C[C@@H]1[C@@H]2CC[C@@]2(C)[C@H]1CC[C@@]2(O)CCC(=O)O	4.5
CN(CC(=O)NC(=O)NC1CCCCC1)Cc1ccccc1	-3.7
CCOC(=O)c1c(NC(=O)COC(=O)c2nccnc2N)sc2c1CCC2	20.5
COc1ccc(S(=O)(=O)N(C)C[C@@H]2Oc3c(NS(=O)(=O)c4cn(C)cn4)cccc3C(=O)N([C@@H](C)CO)C[C@@H]2C)cc1	3.5
C#CCOCCOCCOCCNc1nc(N2CCN(C(=O)CCCCCCCCCCNC(=O)[C@H](CO)n3cc(CCCCCN)nn3)CC2)nc(N2CCN(C(=O)CCCCCCCCCCNC(=O)[C@H](CCCN=C(N)N)n3cc(C[C@@H](C)CC)nn3)CC2)n1	100.0
CS(=O)(=O)N1CCc2ccc(NC(=O)C3CCCO3)cc2C1 (stereo not given)	?
COc1ccccc1C(=O)NCC(=O)N1CCN(S(=O)(=O)c2ccccc2C(F)(F)F)CC1	-8.3
O=C(COC(=O)CSc1ccc([N+](=O)[O-])cc1)NC1CCCCCCC1	-2.2
COc1ccc([C@H]2CC(=O)C=C(c3ccc(Br)c4ccccc34)C2)cc1	80.0
COCCCn1c(=O)c2ccccc2n(CC(=O)N2CCCc3ccccc32)c1=O	-5.3
Fc1cccc(CN(C2=NCCN2)c2c(Cl)cccc2Cl)c1	4.4
COc1cccc(NC(=O)CSc2nnc(C3CCCCC3)n2N)c1	6.0
CC[C@@H]1C/C=C\Cc2ccccc2[C@@H](C(=O)C[C@H](O)CC(C)=O)OC1=O	3.5
CC(=O)c1ccc(NC(=O)COC(=O)Cn2cnc3ccccc32)cc1	-1.1
C[C@H]1CN([C@@H](C)CO)C(=O)Cc2cc(NC(=O)CCC(F)(F)F)ccc2O[C@H]1CN(C)S(=O)(=O)c1ccc(F)cc1	3.9
COc1ccc(CNC(=O)CN(C(=O)c2csnn2)c2ccccc2F)cc1	2.2
CCOc1ccc(NC(=O)COc2ccc(S(=O)(=O)N3CCOCC3)cc2)cc1	-6.7
CC1(c2ccc3ccccc3c2)NC(=O)N(CC(=O)N2CCN(Cc3ccccc3)CC2)C1=O (stereo not given)	1.3
CC(=O)[C@@]1(O)CCC2C3CC=C4C[C@@H](O)CC[C@]4(C)C3CC[C@@]21C (stereo not given in full)	3.3
O=C(/C=C/c1ccc(Cl)cc1)Nc1cc(S(=O)(=O)N2CCOCC2)ccc1N1CCOCC1	-4.1

The listing continues:
SMILES	Mtb betalactam
CN(CC(=O)Nc1ccccc1C(F)(F)F)C(=O)C1CC1	-2.7
CCN(Cc1nc2cc(Cl)ccc2c(=O)[nH]1)C(=O)COc1ccccc1Cc1ccccc1	30.8
CC(C)Cn1c(N)c(C(=O)COC(=O)c2ccccc2C(=O)c2ccccc2)c(=O)n(C)c1=O	-3.8
Cc1c(O)c(=O)n(-c2ccccc2)n1C	85.3
CC1CCN(C(=O)c2nc[nH]c2C(=O)OCCNC(=O)OC(C)(C)C)CC1	1.9
NC(=O)COc1ccc(C(=O)NCC2(N3CCOCC3)CCCCC2)cc1	-2.2
Cc1ccc(NC(=O)COC(=O)CCc2c[nH]c3ccccc23)c(C)c1	86.8
O=C(c1cc(-c2ccc(F)cc2)nc2ccccc12)N1CCC1	0.1
CC(C)c1ccc(NC(=O)COC(=O)c2ccc(CN3CCCC3=O)cc2)cc1	-5.2
C[C@H](CO)N1C[C@H](C)[C@@H](CN(C)S(C)(=O)=O)Oc2ccc(NC(=O)Cn3cnnn3)cc2C1=O	-11.3
C#CCOCCOCCOCCNc1nc(N2CCN(C(=O)[C@H](CCCCN)n3cc(CN)nn3)CC2)nc(N2CCN(C(=O)[C@H](CC(N)=O)n3cc(C(N)[C@H](C)CC)nn3)CC2)n1 (stereo not given in full)	1.7
O=C(COC(=O)COc1ccc(Cl)cc1)NC1CCCC1	4.3
Cc1csc(SCC(=O)Nc2ccccc2C)n1	-3.6
CC1(NC(=O)Cc2csc(-c3cccc(Cl)c3)n2)CCS(=O)(=O)C1 (stereo not given)	-11.5
O=C(COc1ccc([N+](=O)[O-])cc1Cl)Nc1ccc2[nH]c(=O)[nH]c2c1	-2.1
CCOC(=O)C1(CCOc2ccccc2)CCN(Cc2ccc(OC)c(COC)c2)CC1	6.6
O=C(COC(=O)c1ccc(O)cc1O)Nc1cccc2ccccc12	4.3
COc1cc2c(cc1OC)C(c1ccc(C(F)(F)F)cc1)CC(=O)N2 (stereo not given)	-6.6
Cc1noc(C)c1S(=O)(=O)N1CCC(C(=O)O)CC1	-1.4
COc1ccc(C)cc1NC(=O)COC(=O)c1c(C)nn(-c2ccccc2)c1C	37.9
O=C1C=C(c2ccc(Cl)nc2)C[C@@H](c2ccc3c(c2)OCO3)C1	36.6
Clc1cccc(-c2ccc3ncnc(NCc4cccs4)c3c2)c1	79.8
CN(Cc1ccccc1)C(=O)c1[nH]cnc1C(=O)Nc1ccccc1	72.6
CC1CCCC(NC(=O)CSc2ncnc3ccccc23)C1C (stereo not given)	1.5
CC(=O)Nc1cccc(C(=O)N(Cc2ccccc2)Cc2ccccc2)c1	-5.7
CC(C(=O)N1CCCC1)N1CCN(S(=O)(=O)c2ccc(OC(F)(F)F)cc2)CC1 (stereo not given)	-3.1
Cc1occc1-c1nnc(SCC(=O)N2CCCC(C)C2)o1 (stereo not given)	70.7
O=C(Cc1c(F)cccc1Cl)OCC(=O)N1CCN(c2ccccc2)CC1	-12.8
Cc1cc(C)n2nc(C(=O)OCC(=O)Nc3ccc(C)c(F)c3)nc2n1	0.6
CC1CCN(C(=O)C(C)OC(=O)CSc2ccc([N+](=O)[O-])cc2)CC1 (stereo not given)	-0.9
Cc1ccc(C2(c3ccccc3)NC(=O)N(CC(=O)NCc3ccccc3)C2=O)cc1C (stereo not given)	1.8
C=CCC[C@H](Cc1ccc(F)cc1)C(=O)OC[C@@H](NC(=O)[C@H](CC=C)CC(=O)NCCO)C(C)(C)C	2.7
O=C(Cn1nc(C(=O)O)c2ccccc2c1=O)Nc1cc(Cl)ccc1-n1cncn1	-3.7
CCc1sc(C(=O)Nc2ccc3nc(C)sc3c2)cc1C	65.1
O=C(CN1C(=O)NC2(CCOc3ccccc32)C1=O)Nc1ccc(Br)cc1F (stereo not given)	2.4
O=C(COC(=O)C1=COCCO1)Nc1ccc(Cl)cn1	60.9
COc1ccc(C(=O)/C=C/c2ccc(O)cc2)c(O)c1C/C=C(\C)CCC=C(C)C	39.1
O=C(NC1CCN(Cc2ccccc2)CC1)c1ccccc1NS(=O)(=O)c1ccc(F)cc1	-2.3
CCn1c(CN2CCCCC2)nc2cc(S(=O)(=O)N3CCCCC3)ccc21	-0.3
N=c1n(CC(=O)c2ccc(Br)cc2)c2ccccc2n1Cc1ccccc1	?
COc1ccccc1C(=O)COC(=O)C(NC(=O)Cc1ccccc1)C(C)C (stereo not given)	0.7
O=C(Cc1ccccc1[N+](=O)[O-])NNC(=O)c1cccs1	-0.7
Cc1ccc(NC(=O)[C@@H](NC(=O)N2C[C@H]3C[C@@H](C2)c2cccc(=O)n2C3)C(C)C)cc1	-6.3
COc1ccc2c(CC(=O)OCC(=O)Nc3cccc(C)c3)coc2c1	3.6
COc1ccc(S(=O)(=O)Nc2ccc3c(c2)C(=O)N([C@H](C)CO)C[C@H](C)[C@@H](CN(C)S(=O)(=O)c2ccccc2)O3)cc1	8.5
CC(C)Cn1c(N)c(C(=O)CSc2n[nH]c(N)n2)c(=O)n(C)c1=O	5.2
CCc1cccc(C)c1NC(=O)COC(=O)CSCc1ccccc1	5.9
CC(C#N)(NC(=O)CN1CCN(S(=O)(=O)c2ccccc2Cl)CC1)C1CC1 (stereo not given)	2.2
O=C(COc1cc(F)ccc1[N+](=O)[O-])Nc1ccc2c(c1)OCO2	-2.7
COc1ccccc1C(=O)OCC(=O)c1ccc(CNC(C)=O)s1	-6.7
CCN1N=C(c2ccccc2)CCC1=O	-4.3
COc1ccc(N(C)S(=O)(=O)c2cccc(C(=O)OCC(=O)N3CC(C)CC(C)C3)c2)cc1 (stereo not given)	-2.5
O=c1oc(Cl)c(Cl)c2ccccc12	-1.2

Fetched by compound from the entries so far, 3 records:
SMILES	Mtb betalactam
COc1ccc2c(CC(=O)OCC(=O)Nc3cccc(C)c3)coc2c1	3.6
CCc1cccc(C)c1NC(=O)COC(=O)CSCc1ccccc1	5.9
O=C(COc1cc(F)ccc1[N+](=O)[O-])Nc1ccc2c(c1)OCO2	-2.7

This is a subset; the hit share may differ from the screen's.
